CapD inh: inhibitors of Bacillus anthracis CapD enzyme; purified CapD enzyme, fluorescence intensity read-out; hits give low values; some hits fall short of the stated cut; z-score (test concentration not listed); 140,000 tested, 0.23% active;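 active means z-score under -4 in either of two replicates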;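 further: stock transfer was 100 nL into about 40 µL; score is relative to mean and spread of the plate; one replicate is shown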
AID504770: E. coli YBA685 growth inhibition, screen for V. cholerae RctB inhibitors; E. coli YBA685 rctB-dependent plasmid, OD600 growth, 3 h; hits give low values; z-score (test concentration not listed); 130,000 tested, 0.27% active;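 active means z-score under -2 on both plates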;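 further: wells of about 30 µL received 100 nL stock; score is relative to mean and SD of the test wells; the first replicate is given; strong numbers were not always called active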
Starred values were filed as active, the others as inactive; . = not tested or not shown.

Preview, six compounds:
SMILES | CapD inh | AID504770
CCn1nnc2c(N3CCc4cc(OC)c(OC)cc4C3C)ncnc21 (centres undefined) | . | -1.4
Cn1c(=O)oc2cc(S(=O)(=O)N3CCCCC3)ccc21 | 5.2 | 0.15
COc1ccc(C2CC(c3ccc(Br)cc3)=NN2C(=O)CCCC(=O)O)cc1 (centres undefined) | 1.7 | .
CCOC(=O)CSc1nc2c(sc(=S)n2Cc2ccco2)c(=O)n1-c1ccc(F)cc1 | 0.11 | .
CCOC(CN(Cc1ccc(OC)c(OS(=O)(=O)c2ccc(C)cc2)c1)S(=O)(=O)c1ccc(C)cc1)OCC | -0.23 | .
O=C(Nc1ccc(C(=O)N2CCOCC2)cc1)Nc1ccc(Cl)cc1Cl | 0.24 | -0.6

This part in full (from the top)
SMILES | CapD inh | AID504770
CCn1nnc2c(N3CCc4cc(OC)c(OC)cc4C3C)ncnc21 (centres undefined) | . | -1.4
Cn1c(=O)oc2cc(S(=O)(=O)N3CCCCC3)ccc21 | 5.2 | 0.15
COc1ccc(C2CC(c3ccc(Br)cc3)=NN2C(=O)CCCC(=O)O)cc1 (centres undefined) | 1.7 | .
CCOC(=O)CSc1nc2c(sc(=S)n2Cc2ccco2)c(=O)n1-c1ccc(F)cc1 | 0.11 | .
CCOC(CN(Cc1ccc(OC)c(OS(=O)(=O)c2ccc(C)cc2)c1)S(=O)(=O)c1ccc(C)cc1)OCC | -0.23 | .
O=C(Nc1ccc(C(=O)N2CCOCC2)cc1)Nc1ccc(Cl)cc1Cl | 0.24 | -0.6
COC(=O)c1cc(C(=O)OC)cc(N2C(=O)CSC2c2ccc(Cl)cc2Cl)c1 (centres undefined) | -0.76 | .
OCC12COC(c3ccccc3)N1C(c1ccccc1)OC2 (centres undefined) | -0.18 | -0.95
O=C(O)c1cc(Br)c(Br)s1 | 0.19 | .
CCc1ccc(/C=C2\NC(=S)N(C3CCCCC3)C2=O)cc1 | 1.6 | 1
O=C(CSc1nnc(N2C(=O)c3ccccc3C2=O)s1)NCCOc1ccc(Cl)cc1 | -0.08 | .
CC(C)C1C(c2ccccc2)NC(c2ccccc2)CC1(O)c1ccc(F)cc1 (centres undefined) | 0.06 | .
COc1cc(/C=N/N2CCOCC2)ccc1OC(=O)c1ccco1 | . | -0.25
CC(=O)NCc1ccc(C(=O)CSc2nnc3n2CCCCC3)s1 | . | -0.4
Cc1cc(=O)n(-c2ccc(Cl)c(Cl)c2)[nH]1 | -0.12 | .
N#Cc1ccccc1CSc1nc2ccccc2c(=O)n1CC1CCC(C(=O)NCc2ccco2)CC1 (centres undefined) | 0.41 | 0.05
CCOc1ccccc1C(=O)N1CCOCC1 | . | -1.3
O=C(COC(=O)c1ccc(F)cc1)NC(c1ccccc1)c1ccccc1 | -0.065 | 0.45
O=C1CN(c2ccccc2)C(=Nc2ccccc2)S1 | . | 1.4
C=CCn1c(=N)n(CC(O)COc2ccc(OC)cc2)c2ccccc21 (centres undefined) | -0.045 | 2
C=CCn1c(SCC(=O)Nc2nnc(-c3ccccc3)s2)nnc1-c1cccs1 | 0.005 | .
CCC1CCCCN1C(=O)CSC1=NN2CCCC(=O)N=C2S1 (centres undefined) | -0.035 | -0.2
CC1CCc2cc(F)ccc2N1C(=O)Nc1cccc(Cl)c1 (centres undefined) | 0.09 | .
C=Cn1c(=N)n(C)c2ccccc21 | . | -1.1

Reformatted as a markdown table: part of the list above
| molecule | CapD inh | AID504770 |
| --- | --- | --- |
| COc1cc(/C=N/N2CCOCC2)ccc1OC(=O)c1ccco1 | . | -0.25 |
| CC(=O)NCc1ccc(C(=O)CSc2nnc3n2CCCCC3)s1 | . | -0.4 |

(further entries)
SMILES | CapD inh | AID504770
CCN(CC)C(=O)/C=C/c1cn(-c2ccccc2)nc1-c1cccs1 | 2 | 0.05
COC(CNS(=O)(=O)c1ccc(S(=O)(=O)NCc2ccccc2)cc1)OC | . | -0.7
CN(CCO)c1cnn(-c2ncc(C(F)(F)F)cc2Cl)c(=O)c1Cl | -0.51 | .
FC(F)Sc1nnc(-c2ccccc2)c2ccccc12 | . | 0
CC(C)c1ccc(C2NC(=O)NC2=O)cc1 (centres undefined) | . | 0.5
CN(C)CP(=O)(O)CCn1c2ccccc2c2ccccc21 | 21 | -0.2
COCc1nc2ccccc2n1Cc1ccccc1C | -0.61 | -1.3
CCCN1CCC(N(C(=O)Nc2ccccc2)c2ccc3c(c2)CCN3C(C)=O)CC1 | -0.15 | .
O=C(O)CSCC(=O)N1CCN(c2cccc(Cl)c2)CC1 | 0.89 | .
COC(=O)c1ccccc1OCC(=O)Nc1ccc(C)cc1C | -0.95 | -0.8
Cc1c(Cl)cccc1NC(=S)NCc1cccnc1 | -0.36 | .
CC(C)(CO)NC(=O)COc1ccc(Cl)cc1 | 0.36 | 1.3
COc1ccc(/C=C2\C(=O)N(c3ccccc3)C3=C2C(c2ccc(Br)cc2)N(c2ccccc2)C3=O)cc1 (centres undefined) | 0.11 | .
Cc1cc(C)nc(N(C#N)CC(=O)N2c3ccccc3Sc3ccc(Cl)cc32)n1 | . | 0.2
O=S(=O)(Oc1ccccc1-c1csnn1)c1ccc(Cl)cc1 | -0.32 | .
Cc1cc2cc(CNC(=O)/C=C\c3ccccc3)ccc2[nH]1 | -0.55 | -0.75
COc1ccc(CN2C(=O)C3CC=CCC3C2=O)cc1F (centres undefined) | . | -0.7
CC(=O)NC12CC3(C)CC(C)(CC(C)(C3)C1)C2 | -0.46 | -0.85
COc1ccc(C2=NN3C(C2)c2cc(OC)ccc2OC3c2ccc(Cl)cc2)cc1 (centres undefined) | -0.73 | .
CCc1cccc(NS(=O)(=O)c2ccc3c(c2)CC(C)N3C(C)=O)c1 (centres undefined) | -1.1 | -0.6
Cc1cc(N2CCC(C(=O)NCCCN3CCCC3)CC2)n2nc(C)c(-c3ccc(Cl)cc3)c2n1 | 2 | -0.55
O=S(=O)(NCc1cccnc1)c1cccs1 | -0.85 | .
CC(C)(C)OC(=O)NC1CCN(C(=O)Nc2ccccc2)CC1 | -0.035 | 2.2
CC(C)N1CCC(=O)N(c2ccc3c(c2)CCO3)C1=O | 0.42 | 0.7

Some of these compounds in order of formula weight, smallest number first:
SMILES | CapD inh | AID504770
CC(=O)NC12CC3(C)CC(C)(CC(C)(C3)C1)C2 | -0.46 | -0.85
CCc1cccc(NS(=O)(=O)c2ccc3c(c2)CC(C)N3C(C)=O)c1 (centres undefined) | -1.1 | -0.6
Cc1cc(C)nc(N(C#N)CC(=O)N2c3ccccc3Sc3ccc(Cl)cc32)n1 | . | 0.2

(next part)
SMILES | CapD inh | AID504770
NC(=O)c1nnc2c3c(-c4ccccc4)c(-c4ccccc4)nnc3nn2c1N | 0.2 | -2.6
CC(=O)C12c3ccccc3C(c3ccccc31)C1C(=O)N(c3cccc(C(F)(F)F)c3)C(=O)C12 (centres undefined) | -0.45 | .
CCOc1ncccc1C(=O)Nc1ccnn1C(=O)c1cccnc1OCC | . | -0.75
COCCN1C(=O)C(=O)/C(=C(/O)c2ccccc2)C1c1ccc(O)c(OC)c1 (centres undefined) | 0.35 | .
CCN(CC)c1cccc(NC(C)=O)c1 | 0.2 | .
CSc1nc(C2CC2)cc(-c2ccccc2)c1C#N | 0.58 | -0.2
CCOC(=O)c1cc2c(ccn2C)n1CC(=O)N1CCC(Cc2ccccc2)CC1 | . | -0.05
Cc1ccc(NC(=O)CC2SC(=Nc3ccccc3)N(S(=O)(=O)c3ccccc3)C2=O)cc1 (centres undefined) | -0.65 | .
COC(=O)C1=CN(Cc2ccc(OC)cc2)C=C(C(=O)OC)C1c1ccccc1OCc1ccccc1 | 45 | .
CSc1sc(C(=O)Nc2cccc(C(F)(F)F)c2)cc1S(=O)(=O)C(C)C | -0.28 | 1
COc1ccc(CNc2nc3ccccc3n2C)cc1OC | -0.04 | -0.3
COc1ccc(-n2c(N)c(-c3nc4ccccc4s3)c3nc(C#N)c(C#N)nc32)cc1 | 2.4 | 0.85
Cc1c(C#N)c(N=CN(C)C)c(C(=O)c2ccccc2)n1-c1ccccc1 | -0.55 | 0
CC1(C)NC(=O)N(CCC#N)C1=O | . | -0.7
CC(=O)c1c(C)n(S(=O)(=O)c2ccc3ccccc3c2)c2ccc(NS(=O)(=O)c3ccc4ccccc4c3)cc12 | -0.11 | .
O=C(CSc1nnc2sc3ccccc3n12)N1N=CCC1c1ccccc1 (centres undefined) | -0.33 | -3.8
CCN1CCN(CC(=O)NCc2ccc(Cl)cc2)CC1 | -0.17 | -0.25
COc1ccc(NC(=O)c2cnc3ccccn3c2=O)cc1 | 0.46 | -0.25
O=C(COc1ccc2ccccc2c1)N1CCNCC1 | 0.85 | -0.6
CCC(CC)NC(=O)CSc1nnc(Cc2ccccc2)o1 | . | -0.35
COC(=O)CN1C(c2ccccc2)=Nc2ccc(Br)cc2C1c1ccccc1 (centres undefined) | -0.51 | .
CCOC(=O)c1sc(SC)c2c1CCC/C2=N/OC | -0.39 | .
CN(C(=O)C1=CC(c2ccc(F)cc2)=NS(=O)(=O)N1C)C1CCCCC1 | 0.76 | -0.15
CCOC(=O)c1c(NC(=O)c2cc3ccccc3oc2=O)sc(C(=O)CC)c1C | 0.04 | .
Cc1nn(-c2ccccc2)c2c1C(=O)CC(c1ccco1)C2 (centres undefined) | . | -0.3
Cc1c(OCC(=O)C(C)(C)C)ccc2c3c(c(=O)oc12)CCC3 | 1.4 | 1
COc1cccc(CN(Cc2ccco2)S(=O)(=O)c2ccccc2Br)c1 | -0.56 | .
CCOC(=O)c1cnn(C)c1-n1cccc1 | -0.26 | .
CN(Cc1ccccc1)S(=O)(=O)c1ccc(N2CCOCC2)c(C(=O)N2CCN(c3ccc([N+](=O)[O-])cc3)CC2)c1 | -1.1 | .
CC(C)Cn1cnc2sc3c(c2c1=N)CCCC3 | -0.045 | 0.1
Oc1ccccc1C=NCc1csc2ccccc12 | -0.39 | -0.85
ClCC1=Nc2ccccc2C(c2ccccc2)(c2ccccc2)O1 | -0.23 | .
CSc1nnc(-c2cccn(Cc3ccc(Cl)c(Cl)c3)c2=O)n1C | 85 | .
COc1ccc(N2CCN(c3ncnc4c3[nH]c3ccccc34)CC2)cc1 | 0.38 | .
CC1=C(C(=O)OC(C)C(C)(C)C)C(c2ccc(O)cc2)NC(=O)N1 (centres undefined) | 0.44 | 0.2
O=C(c1cc2ccc3cccnc3c2[nH]1)N1CCc2ccccc21 | -0.33 | -0.95
CC(C)c1ccc(OC(=O)C2COc3ccccc3O2)cc1 (centres undefined) | 0.39 | -0.55
COC(=O)CC1=NN(c2ccccc2)C(=O)/C1=C/N(C)C | . | 0.4
N#CC1=C(N)Oc2nc(-c3ccccc3)[nH]c2C1c1ccc(OCC(N)=O)cc1 (centres undefined) | -0.14 | -1.3
CN1CCN(CCCNC(=O)OCCc2ccc(Cl)cc2)CC1 | 0.41 | .
CC(C)CC(NC(=O)c1ccc(C23CC4CC(CC(C4)C2)C3)cc1)C(=O)NCc1cccnc1 (centres undefined) | -0.29 | 1.5
CN1CCOCCOCCN(C)C1=O | . | -1.1
Cc1ccsc1CNC(=O)c1sccc1Cl | 0.33 | -0.45
Cc1cc(NS(=O)(=O)c2ccc(N3Cc4ccccc4C3=NC(=O)c3cccc(S(=O)(=O)N(C)C)c3)cc2)no1 | . | 2
O=C(Cn1c(=O)sc2ccccc21)Nc1ccccc1 | 0.075 | -0.85
Cc1cc(C(=O)OCC(=O)OC2CC(C)CCC2C(C)C)c(C)o1 (centres undefined) | . | -0.4
C=CCNC(=O)CCc1cc(OC)c(OC)c(OC)c1 | . | -0.05
COc1ccc(C2Oc3ccccc3C3CC(c4ccc(Br)cc4)=NN32)cc1 (centres undefined) | 0.6 | .
c1ccc2[nH]c(Cc3nc4ccccc4s3)nc2c1 | . | -0.1
O=C(NCCCn1ccnc1)c1cc(C(=O)C2CC2)c[nH]1 | -0.16 | -0.6
O=C(Nc1ccc(Oc2ccc(C(F)(F)F)cn2)c(Cl)c1)C1CC1 | -0.1 | .
C=CCn1c(SCc2nc(N)nc(N(C)C)n2)nnc1-c1cccnc1 | -0.065 | -0.25
Cc1cccc(NC(=O)CN2C(=O)C3C4C=CC(C4)C3C2=O)c1 (centres undefined) | 0.12 | 0
CC1=C(C#N)C(C(F)(F)F)(C(F)(F)F)N=C(c2cccnc2)N1 | -0.6 | -0.6
O=C1CC2c3ccccc3C1C1C(=O)N(c3ccc(Cl)c(Cl)c3)C(=O)C21 (centres undefined) | 6 | .
CN(CCCc1[nH]nc(N)c1C#N)c1nc(-c2cccs2)nc2ccccc12 | . | -0.3
COc1cc(C(=O)Nc2ccc3c(c2)N(C(C)=O)c2ccccc2CC3)cc(OC)c1OC | -0.29 | .
CC(C)Cn1c(SC/C(O)=C(\C#N)C(=O)NCc2ccccc2)nc2ccccc21 | . | -0.4
CC(=O)N/C(=C/c1ccccc1)C(=O)N1CCc2ccccc21 | -0.53 | 0.15
O=C(Nc1ccc(/C=C/c2nc3ccccc3o2)cc1)c1ccc(F)cc1 | 37 | .

Entries of single compounds, quoted from the list:
`Cc1cccc(NC(=O)CN2C(=O)C3C4C=CC(C4)C3C2=O)c1` (centres undefined) across the screens: CapD inh = 0.12; AID504770 = 0
`O=C(NCCCn1ccnc1)c1cc(C(=O)C2CC2)c[nH]1` across the screens: CapD inh = -0.16; AID504770 = -0.6

Later entries:
SMILES | CapD inh | AID504770
CCCC(=O)NCc1cn2ccsc2n1 | 0.19 | -0.25
Cc1oc2cc(O)cc(O)c2c(=O)c1-c1ccccc1 | -0.78 | 0.35
O=c1ccc(-c2ccc(S(=O)(=O)NCCCN3CCCCCC3)s2)n[nH]1 | 2.3 | 0.2
CCc1cccc2c(C#N)cn(CCOc3ccccc3OC)c12 | . | -0.65
CC1CCN(C(=O)CSc2nnc(Cc3ccccc3)o2)c2ccccc2S1 (centres undefined) | . | -0.45
O=C(OCC(=O)N(Cc1ccccc1)Cc1ccccc1)c1ccc2ccccc2n1 | -0.11 | -0.45
Cc1ccc(N2C3=C(C(=O)CC(C)(C)C3)C(c3cccs3)C3=C2CC(C)(C)CC3=O)cc1C | 79 | -0.7
O=C(NCc1cccnc1)C1CCN(c2nnc(-n3cccc3)s2)CC1 | 0.51 | -0.45
Cc1cccnc1N/C=C1/CCCCC1=O | -0.34 | 0.45

Assay outcomes from PubChem.
